Anaer choline gr = blocks anaerobic gram-negative growth on choline | Gram-negative bacterium anaerobic choline minimal medium, absorbance growth; stronger effect = lower value; many inactives read as strong as hits in the columns shown | calls only | actives 0.2% (n = 55,000) | AID 1963822;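 active = growth z-score on choline under -2 at 7 or 20 h with little or no fall on glycerol, limits in tiers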;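 also: stock transfer was 300 nL into about 50 µL; the organism is E. coli; final concentration not given here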
Anaer choline gr early = second read-out of Anaer choline gr, no call of its own (marks repeat the call); z-score; measured here: choline growth z-score, timepoint 1;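 score of optical density at 7 h as mean of two plates; lower means less growth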
* = called active by the depositor; i = inactive; & = joins results of further samples. A portion of the library, so the mix of outcomes need not match the whole.

SMILES	Anaer choline gr	Anaer choline gr early
Cc1ccc(CNC(=O)c2cc(-c3cccnc3)nc3ccccc23)cc1	i	0.68
O=C(Nc1cccc(C(=O)N2CCCC(C(=O)NCC3CCCCC3)C2)c1)c1ccccc1F (stereo not given)	i	-0.48
CCOC(=O)c1c(C)c(S(=O)(=O)NC2CC2)c(C)n1C	i	-0.18
c1cc(-c2nnc(C3CC3)o2)ccn1	i	-0.03
COc1ccc(OC)c(-c2[nH]ncc2CN2CCCC2c2cc(C)on2)c1 (stereo not given)	i	0.5
Cc1ccc(COc2ccccc2C2CC(=O)Nc3c2cnn3-c2ccc3nnc(C)n3n2)cc1 (stereo not given)	i	-0.09
O=C(Nc1ccccc1)C1=Cc2cc(Br)ccc2OC=C1	i	-0.82
COc1ccc(Nc2ncnc3sc(C)c(S(=O)(=O)N4CCCCC4)c23)c(OC)c1	i	2.1
CCCCC/C=C\C[C@H](O)/C=C/C=C\C/C=C\CCCC(=O)O	i	-0.03
O=C(Nc1ccc(F)cc1)N1CCC(n2cnc3cc(F)ccc3c2=O)CC1	i	0.03
Clc1ccc(CSc2cc(Cl)ncn2)cc1	i	0.01
CCC(C(=O)Nc1cccc(OC)c1)n1nc(-c2cc(C)ccc2C)ccc1=O (stereo not given)	i	1.9
O=C(NC1CCCCC1)c1csc(C(=O)NC2CC2)n1	i	-0.47
COCCn1c(C)nc2cc(C)c(C)cc21	i	-0.72
COc1cc(NC(=O)N2CCCC2c2cc(C(C)C)no2)cc(OC)c1 (stereo not given)	i	-1.4
CC(C)C(NS(=O)(=O)c1ccccc1)C(=O)N1CCC(c2nc(-c3ccccc3)no2)CC1 (stereo not given)	i	1.8
C=CCN1CCCC1CNC(=O)c1cc2[nH]nnc2cc1OC (stereo not given)	i	0.01&0.09
CCN(CC)CCCC(C)Nc1c2ccc(Cl)cc2nc2ccc(OC)cc12 (stereo not given)	i	-0.91&-0.21&-2&-2.7
COc1ccc(N2CCN(c3nccc4ccc(C(=O)N5CCOCC5)cc34)CC2)cc1	i	-1.6
Cc1nn(CC(=O)N2CCCC2)c(C)c1S(=O)(=O)N1CCC(C(=O)N2CCc3ccccc3C2)CC1	i	-1
O=c1ccc(-c2ccc3c(c2)OCO3)nn1CCc1nc(-c2ccc(F)c(Br)c2)no1	i	0.03
Cc1cc(NC(=O)c2cc3ccccc3o2)n(-c2ncnc3c2cnn3-c2ccc(Cl)cc2)n1	i	-1.3
Cc1cccc(-c2nn3c(=O)cc(N4CCN(S(=O)(=O)c5cc(C)ccc5C)CC4)nc3s2)c1	i	0.47
CC[C@H]1OC(=O)[C@H](C)[C@@H](O[C@H]2C[C@@](C)(OC)[C@@H](O)[C@H](C)O2)[C@H](C)[C@@H](O[C@@H]2O[C@H](C)C[C@H](NC)[C@H]2O)[C@](C)(O)C[C@@H](C)CN(C)[C@H](C)[C@@H](O)[C@]1(C)O	i	-2.7
CC(C)C(=O)Nc1ccc(N2CCn3c(nc4cc(Cl)ccc43)C2)cc1	i	-0.08
O=C(Nc1ccc2c(c1)OCO2)c1nnc(C(=O)N2CCCC(C(=O)N3CCCC3)C2)s1 (stereo not given)	i	-0.43
Cc1nc(N2CCCC(C(=O)NC3CCCC3)C2)c2c(C)c(C)oc2n1 (stereo not given)	i	-0.32
Cc1oc2ccccc2c1C(=O)CSc1nc2nc[nH]c2c(=O)[nH]1	i	-0.71
O=S(=O)(Nc1nc2n(n1)C(c1ccccc1)C=C(c1ccc(Cl)cc1)N2)c1ccccc1 (stereo not given)	i	1.2
O=C(CCc1nc(-c2ccc(S(=O)(=O)N3CCOCC3)cc2)no1)N1CCc2ccccc21	i	0.18
Cc1ccc(-c2c(C(F)(F)F)nn3c(N4CCN(c5nc(C)cc(C)n5)CC4)cc(C)nc23)cc1	i	-0.2
O=C(NC1CCCc2ccccc21)c1cccc(-c2ccc(N3CCOCC3)nn2)c1 (stereo not given)	i	0.97
CC(C)CC(=O)N1CCCC(c2nc(CNC(=O)C(C)C)cs2)C1 (stereo not given)	i	0.11
COc1ccc(-c2noc(CCCC(=O)Nc3nccs3)n2)cc1	i	0.24
O=C(C1CCC(=O)N1S(=O)(=O)c1ccccc1)N1CCN(CCOc2ccc(Cl)cc2)CC1 (stereo not given)	i	-1.2
CCCc1cc(C2CCCN2C(=O)c2cnn3cc(Br)cnc23)no1 (stereo not given)	i	-1.6
Cn1cnc(S(=O)(=O)N2CCC(C(=O)Nc3cccc(Cl)c3)CC2)c1	i	-0.09
Cc1nn2c(C)c(C(=O)N3CCCC3)cnc2c1-c1ccccc1	i	-0.19
Cc1cc(OCC(=O)Nc2ccc3c(c2)OCO3)nc(N2CCCC2)n1	i	2.7
CCOc1ccccc1OCCN[C@H](C)Cc1ccc(OC)c(S(N)(=O)=O)c1	i	-0.52
O=C(C1CCN(S(=O)(=O)c2ccc3[nH]c(=O)ccc3c2)CC1)N1CCN(c2ccccc2)CC1	i	-0.29
O=C1CN(Cc2ccccc2)S(=O)(=O)c2ccccc2N1Cc1ccccc1	i	-0.56
Cc1cccc(NC(=O)c2ccc(=O)n(CCC(=O)N3CCN(c4ccccn4)CC3)n2)c1	i	-0.41
O=C(CC1CCCC1)N1CC(OCc2cccc(F)c2)C1	i	-0.44
Cc1cc(C2CCCN2C(=O)Nc2ccccc2)on1 (stereo not given)	i	-0.04
CCOc1cccc(CC(=O)Nc2cc(-c3nc4ccccc4o3)ccc2OC)c1OCC	i	3.8
CCc1nnc(NC(=O)CCc2nc(-c3ccc(C)n(CC)c3=O)no2)s1	i	-0.83
CCC(Sc1nnc2c3ccccc3nc(-c3ccccc3)n12)C(=O)NC(C)C (stereo not given)	i	0.36
Cc1nc(-c2csc(S(=O)(=O)N3CCCC(C(=O)N4CCCC4)C3)c2)no1 (stereo not given)	i	-0.19
CN1C(=O)c2cc(C(=O)NCCN3CCOCC3)nn2CC1(C)C(=O)NC1CCCC1 (stereo not given)	i	1.4
O=C(Nc1ccc(F)c(Cl)c1)c1sc2ncccc2c1-n1cccc1	i	-0.29
CC1(C)CN(CC(=O)N2CCCC2)c2ccc(S(=O)(=O)N3CCCCC3)cc21	i	1.1
O=C1CC(c2ccccc2)=Nc2ccccc2N1Cc1ccc(F)cc1	i	0.53
CCc1cc(C2CCCN2C(=O)Nc2sc3c(c2C(=O)OC)CCCC3)on1 (stereo not given)	i	0.42
Cc1nc2cc(-c3noc(/C=C/c4ccccc4)n3)ccc2o1	i	0.35
O=C(NCC1CCCO1)c1c(NC(=O)c2nn(-c3ccc(F)cc3)ccc2=O)sc2c1CCCC2 (stereo not given)	i	0.08
CC(C)n1c(SCC(=O)c2ccc3c(c2)CCCO3)nnc1-c1ccc2c(c1)OCCCO2	i	-0.76
COCC(=O)N[C@H]1C[C@@H](CO)N(Cc2ccc(Br)o2)C1	i	-0.49
COCCNC(=O)CSc1nc2ccccc2nc1Cc1ccccc1	i	-0.31
O=C(Cn1c(=O)n(-c2ccccc2)c(=O)c2ccc(C(=O)NCc3ccc4c(c3)OCO4)cc21)Nc1ccc(F)cc1	i	-0.24

Remaining list, next part:
SMILES	Anaer choline gr	Anaer choline gr early
COc1ccc(-c2noc(-c3nnn(-c4ccc(C)cc4)c3N)n2)cc1	i	-1.9
O=S(=O)(c1ccc(Br)cc1)N1CCN(c2cc(-c3cccc(F)c3)ncn2)CC1	i	0.29
CSc1nc2cc(Oc3cccc(Cl)c3Cl)c(Cl)cc2[nH]1	i	-1.4&-0.98&0.05
O=C(c1nc(-c2ccccc2)n(-c2cccc(Cl)c2)n1)N1CCN(c2ccccc2)CC1	i	0.22
COc1ccc(CCNC(=O)c2ccc(-n3nnc4cccnc43)cc2)cc1OC	i	-0.08
CCn1nc(C)c2c1c(=O)n(CCc1ccccc1)c(=O)n2CC(N)=O	i	0.84
COc1ccc(OC)c(CNC(=O)c2ccc3cnn(Cc4cccc(Cl)c4)c3c2)c1	i	0.48
CCc1cc2c(Nc3ccc(OC)cc3OC)ncnc2s1	i	-1.2
COc1ccc(S(=O)(=O)c2c(C)cc(C)n(CC(=O)Nc3ccc(OC)cc3OC)c2=O)cc1	i	-0.55
COc1cc2c(cc1OC)CN(S(=O)(=O)c1ccc3c(c1)C(=O)Nc1cc(Cl)ccc1O3)CC2	i	0.16
COc1ccccc1N1CCN(C(=O)CCCn2c(=O)[nH]c3ccc(Br)cc3c2=O)CC1	i	0.64
CCOc1ccc(-n2nnnc2CNC(=O)Nc2cccc(Cl)c2)cc1	i	1
CCOC(=O)c1c(NC(=O)c2cc(S(=O)(=O)N3CCCC3)ccc2OC)sc2c1CCCC2	i	1.3
Cc1nc(CNC(=O)[C@H]2CSCN2S(=O)(=O)c2cccc(Cl)c2)cs1	i	-0.83
COc1ccccc1NC(=O)Cn1cnc2onc(-c3ccc(Cl)cc3)c2c1=O	i	1.6
Cc1nn(-c2ccccc2)c2c1C(C(=O)NC1CCCC1)N(CCC(C)C)C(=O)CS2 (stereo not given)	i	-0.74
CCOc1ccccc1NC(=O)c1cc2c([nH]c1=O)CC(C)(C)CC2=O	i	1.1
Cc1ccc(CSc2nccc3c2ccn3CC(=O)NCCC2=CCCCC2)cc1	i	0.43
Cc1cc(-c2nc3ccccc3s2)ccc1N	i	0.11
Cc1nc(-c2cc(S(=O)(=O)Nc3ccc(F)c(F)c3)c(C)s2)sc1C	i	0.4
Cc1nc2ccccc2n1Cc1nnc2sc(-c3ccccn3)nn12	i	-1.1
COc1ccccc1N1CCN(c2ncc(NC(=O)c3ccc(C)cc3)cc2C(=O)O)CC1	i	-0.55
O=C(Cn1nc(N2CCN(c3ccccc3)CC2)ccc1=O)N1CCCC1	i	-1.2
CC1CCC(NS(=O)(=O)c2ccc3[nH]c(=O)[nH]c3c2)CC1 (stereo not given)	i	-0.89

Part of the list above, in markdown:
| canonical_smiles | Anaer choline gr | Anaer choline gr early |
| --- | --- | --- |
| COc1ccc(S(=O)(=O)c2c(C)cc(C)n(CC(=O)Nc3ccc(OC)cc3OC)c2=O)cc1 | i | -0.55 |
| COc1cc2c(cc1OC)CN(S(=O)(=O)c1ccc3c(c1)C(=O)Nc1cc(Cl)ccc1O3)CC2 | i | 0.16 |
| COc1ccccc1N1CCN(C(=O)CCCn2c(=O)[nH]c3ccc(Br)cc3c2=O)CC1 | i | 0.64 |
| CCOc1ccc(-n2nnnc2CNC(=O)Nc2cccc(Cl)c2)cc1 | i | 1 |
| CCOC(=O)c1c(NC(=O)c2cc(S(=O)(=O)N3CCCC3)ccc2OC)sc2c1CCCC2 | i | 1.3 |
| Cc1nc(CNC(=O)[C@H]2CSCN2S(=O)(=O)c2cccc(Cl)c2)cs1 | i | -0.83 |
| COc1ccccc1NC(=O)Cn1cnc2onc(-c3ccc(Cl)cc3)c2c1=O | i | 1.6 |
| Cc1nn(-c2ccccc2)c2c1C(C(=O)NC1CCCC1)N(CCC(C)C)C(=O)CS2 (stereo not given) | i | -0.74 |
| CCOc1ccccc1NC(=O)c1cc2c([nH]c1=O)CC(C)(C)CC2=O | i | 1.1 |
| Cc1ccc(CSc2nccc3c2ccn3CC(=O)NCCC2=CCCCC2)cc1 | i | 0.43 |
| Cc1cc(-c2nc3ccccc3s2)ccc1N | i | 0.11 |
| Cc1nc(-c2cc(S(=O)(=O)Nc3ccc(F)c(F)c3)c(C)s2)sc1C | i | 0.4 |
| Cc1nc2ccccc2n1Cc1nnc2sc(-c3ccccn3)nn12 | i | -1.1 |

Following part
SMILES	Anaer choline gr	Anaer choline gr early
CC1CCN(S(=O)(=O)c2nn(C(C)C)cc2C(=O)O)CC1	i	0.35
CCc1onc(C)c1C1CCCN1C(=O)c1c(Cl)cnn1CC (stereo not given)	i	0.22
Cc1cc(Cc2ccc(S(=O)(=O)NCC3CCCO3)cc2)c(=O)[nH]n1 (stereo not given)	i	-0.59
CC(=O)Nc1ccc2nc(NC(=O)c3ccc(S(=O)(=O)N(C)C4CCCCC4)cc3)sc2c1	i	-0.09
COc1ccc(C2C(C(=O)Nc3ccccc3OC)c3ccccc3C(=O)N2c2ccc(OC)cc2)cc1 (stereo not given)	i	0.68
Cc1nc(-c2ccc(F)cc2)sc1CCNS(=O)(=O)c1ccc(Cl)cc1	i	-0.16
CCN(CC)c1cc2c(cc1F)c(=O)c(S(=O)(=O)c1ccccc1)cn2C	i	1.1
O=c1c2cc3c(cc2nc(SCc2nc(-c4ccc(Cl)cc4)no2)n1CC1CCCO1)OCO3 (stereo not given)	i	-0.37
Cc1nc(-c2ccc(C)c(S(=O)(=O)NCC(=O)Nc3cc(Cl)ccc3C)c2)no1	i	-1.2
CC1=C(C(=O)Nc2ccc3c(c2)OCCO3)C2(CCN(C(C)C)CC2)OC1=O	i	0.07
O=S(=O)(c1ccc2c(c1)CCCC2)N1CCC2(CC1)Nc1cc(F)ccc1-n1cccc12	i	-0.36
CCC(=O)Nc1ccc(C(=O)N2CCCC(C(=O)NCCC(C)C)C2)cc1 (stereo not given)	i	0.12
O=C(CCc1nnc2c3cc(-c4ccccc4)nn3ccn12)NC1CC1	i	-0.71
CC1CC(=O)c2cnc(NCCN3CCOCC3)nc2C1 (stereo not given)	i	0.1
Cc1ccccc1C1CC(=O)c2cnc(N3CCc4ccccc43)nc2C1 (stereo not given)	i	0.93
Cc1ccc(-c2nc3sc(CCNS(=O)(=O)c4c(C)cc(C)cc4C)c(C)n3n2)cc1	i	0.17
Cc1cc2nc(C)c(=O)n(Cc3ccc(C(=O)NCCc4c[nH]c5ccccc45)cc3)c2cc1C	i	1.7
Cn1ncc(N2CCC(C(=O)N3CCC4(CC3)OCCO4)CC2)cc1=O	i	-0.09
CCc1onc(C)c1C1CCCN1Cc1cccc(OC)c1O (stereo not given)	i	-1.9
O=C(Nc1ccc(Br)cc1)N1Cc2cccn2-c2ccccc21	i	0.46
CCOC(=O)c1nc(Nc2ccc(Br)c(C)c2)c2c(C)noc2n1	i	0.23
COc1cccc(C2Nc3ccccc3-n3cc4c(=O)n(C)c(=O)n(C)c4c32)c1O (stereo not given)	i	1.1
COC(=O)C1=C(C)NC(C)=C(C(=O)OC)C1c1ccccc1	i	-1.6
